LASV entry inh: qHTS for Inhibitors of binding or entry into cells for Lassa Virus | Lassa virus pseudotype entry inhibition, cell reporter; control for the full effect not named in the record | Potency, µM (doses to about 37.9 µM), without a hit: at the top dose activity change, negative = inhibition, hits mostly inhibitors | 300,000 compounds, 1.2% hits; active means well fitted inhibition curve with a large enough effect; inconclusive means small, poorly fitted or top-dose-only effect, or effect the other way; inactive means flat fitted curve, though single readings scatter; tested in HEK293 cells; also: % is scaled to controls: 0 for no effect and ±100 for the full control effect; nearly all actives have a fitted effect of over 50% in size; luciferase read-out
Cruzain inh Det: qHTS Assay for Promiscuous and Specific Inhibitors of Cruzain (with detergent) | Cruzipain (Trypanosoma cruzi), P25779 | purified cruzain, Z-FR-AMC fluorescence, 0.01% Triton | Potency, µM, without a hit: max response, negative = inhibition, hits mostly inhibitors | 200,000 compounds, 0.43% hits; active = well fitted curve in the direction sought with a large enough effect; inconclusive = small, poorly fitted or top-dose-only effect, or another doubt; inactive = no such curve, though single readings can be large; an effect the other way counts as inactive or inconclusive;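 also: plate controls were neutral wells for no effect and buffer without enzyme for full effect; nearly all actives have a fitted effect of over 40% in size; top concentration of the series not given in the record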
Target sequence (P25779 123-467 limits assumed): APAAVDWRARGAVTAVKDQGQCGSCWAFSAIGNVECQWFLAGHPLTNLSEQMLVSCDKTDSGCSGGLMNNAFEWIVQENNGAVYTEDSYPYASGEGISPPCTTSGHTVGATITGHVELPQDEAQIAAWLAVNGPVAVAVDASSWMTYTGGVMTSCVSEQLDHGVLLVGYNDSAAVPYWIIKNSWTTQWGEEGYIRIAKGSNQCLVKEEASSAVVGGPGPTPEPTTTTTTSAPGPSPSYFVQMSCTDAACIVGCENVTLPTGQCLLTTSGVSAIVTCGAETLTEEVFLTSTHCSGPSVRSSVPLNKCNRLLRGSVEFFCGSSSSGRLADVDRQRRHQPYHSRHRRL
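Enzyme 1.5 nM, Z-FR-AMC 2 uM, NaOAc 100 mM pH 5.5, DTT 5 mM, Triton X-100 0.01%; 15 min RT compound preincubation; kinetic ex360/em450, 60 s delta.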
SARS PLP yeast: qHTS of Yeast-based Assay for SARS-CoV PLP | 330,000 compounds, 0.19% hits | Potency, µM (top dose mostly 32.9 µM), for the others: top-dose activity, positive = growth rescue | S. cerevisiae expressing SARS-CoV PLpro, growth rescue; control for the full effect not named in the record; also: 0% is about no effect; nearly all actives have a fitted effect of over 55% in size; growth read by luminescence after 48 h
NS1 inh: qHTS Assay for Inhibitors of Influenza NS1 Protein Function; S. cerevisiae slowed by influenza A NS1, growth recovery by OD600; Potency, µM (titrated, usually from 46.1 µM), inactives show at the top dose activity, positive = more growth; AID 2326, 2010; 270,000 compounds, 0.4% hits; also: actives are rising curves; nearly all actives have a fitted effect of over 50% in size
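Read-out: OD600 growth recovery of NS1-expressing budding yeast. Cells grown overnight at 30C in -URA glucose medium, washed, resuspended and diluted 1:100 in 2% galactose assay medium, pH 6.0. Same strain lacking NS1 served as positive control.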
StopGo reporter: High Throughput Screening for Foot and Mouth Disease Virus Antivirals. human cells with a luciferase reporter of 2A StopGo recoding; control for the full effect not named in the record. Potency, µM (doses to about 57.9 µM), for the others: at the highest dose signal change, negative = less light. 410,000 compounds, 1.2% hits; active = well fitted falling curve with a large enough effect; inconclusive = small, poorly fitted or top-dose-only effect; inactive = no such curve, though single readings can be large or run the other way; tested in HEK293T cells; also: % is scaled to controls: 0 for no effect and ±100 for the full control effect; nearly all actives have a fitted effect of over 45% in size; luciferase light after 4 h
Cruzain inh noDet: qHTS Assay for Promiscuous and Specific Inhibitors of Cruzain (without detergent); Cruzipain (Trypanosoma cruzi), P25779; purified cruzain, Z-FR-AMC fluorescence, no detergent; Potency, µM, inactives show max response, negative = inhibition, usual class: inhibitors; 200,000 compounds, 2.3% hits; AID 1476, 2009; active = well fitted curve in the direction sought with a large enough effect; inconclusive = small, poorly fitted or top-dose-only effect, or another doubt; inactive = no such curve, though single readings can be large; an effect the other way counts as inactive or inconclusive;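 also: plate controls were enzyme without inhibitor for no effect and buffer without enzyme for full effect; nearly all actives have a fitted effect of over 40% in size; top concentration of the series not given in the record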
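Detergent-free condition (0.00005% Triton X-100) in acetate buffer pH 5.5 with DTT. 1.5 nM enzyme and compound were pre-mixed 15 min, then 2 uM Z-FR-AMC substrate added; reaction progress from fluorescence change between first and third reads (60 s).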
RE007 growth inh: qHTS Assay for Inhibitors of the HIV-1 protein Vpr | 360,000 compounds, 0.21% hits | Potency, µM (highest dose often 92.2 µM), for inactives: top-dose activity change, negative = less growth | S. pombe RE007 Vpr strain, BacTiter-Glo ATP luminescence, 24 h; control for the full effect not named in the record; active = well fitted falling curve with a large enough effect; inconclusive = small, poorly fitted or top-dose-only effect; inactive = no such curve, though single readings can be large or run the other way;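 also: % is scaled to controls: 0 for no effect and ±100 for the full control effect; nearly all actives have a fitted effect of over 50% in size; the assay follows cell death caused by Vpr and the record does not say whether a fall means rescue or toxicity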
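Fission yeast strain RE007, carrying one chromosomally integrated HIV-1 vpr copy, was seeded at OD 0.01 in PMG+AL medium with 23 nL pinned compound. After 24 h at 30 °C and 99% humidity, viability was read by BacTiter-Glo luminescence.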
MARV entry inh: qHTS for inhibitors of binding or entry into cells for Marburg Virus. Marburg virus pseudotyped entry inhibition, cell reporter; control for the full effect not named in the record; about a third of the inactives were read at about 46 µM. Potency, µM (series often up to 37.8 µM), for the others: top-dose activity change, negative = inhibition, hits mostly inhibitors. 300,000 compounds, 1.8% hits. AID 540276, 2011; active = well fitted inhibition curve with a large enough effect; inconclusive = small, poorly fitted or top-dose-only effect, or effect the other way; inactive = flat fitted curve, though single readings scatter; tested in HEK293 cells; about a fifth of its hits are not listed in these tables; also: % is scaled to controls: 0 for no effect and ±100 for the full control effect; luciferase read-out
* marks the source's active call; other numbers are inactive results; & = joins results of further samples; [ ] = remark or other dose. Unless noted, calls follow the shape of the dose curve; as a rule, active means well fitted rising curve with a large enough effect; inconclusive means small, poorly fitted or top-dose-only effect; inactive means no such curve, though single readings can be large or run the other way. Potency is read from the fitted curve at half-maximal effect.

For COC(=O)c1cc(-c2cccs2)[nH]n1 the results were SARS PLP yeast 0.1%, NS1 inh -4.2%, StopGo reporter 14.7% and RE007 growth inh -5.9%.
CN(CCCC(=O)NC1CC(C)(C)NC(C)(C)C1)S(=O)(=O)c1ccc([N+](=O)[O-])cc1 was read as LASV entry inh -10.1%, SARS PLP yeast -0.2%, NS1 inh 3.1%, StopGo reporter -17.8%, RE007 growth inh -3.3% and MARV entry inh 4.9%[46.1 µM].
COC(=O)c1sccc1NC(=O)c1ccnn1C was read as SARS PLP yeast 3.8%, NS1 inh -11.7%, StopGo reporter -9.4% and RE007 growth inh 11.4%.
`CCCCOC(=O)C1=C(C)NC(=O)NC1c1cccc([N+](=O)[O-])c1` (stereo not given) gave SARS PLP yeast 4.3%, NS1 inh inconclusive, StopGo reporter inconclusive and RE007 growth inh 10.6%.
N#CCCn1cc(C(=O)N2CCOCC2)c(-c2ccc3c(c2)OCCO3)n1 was read as LASV entry inh 19.7%[46.1 µM], SARS PLP yeast 2.6%, StopGo reporter -6.5%, RE007 growth inh 12.7% and MARV entry inh inconclusive.
CCCCn1c(=O)nc2n(-c3ccc(OC)cc3)c3ccccc3cc-2c1=O was read as LASV entry inh 16.0%, SARS PLP yeast 0.8%, StopGo reporter -17.9%, RE007 growth inh -4.1% and MARV entry inh -7.7%[46.1 µM].
For CC(=O)Nc1sc2c(c1C(c1cccc(F)c1)N1CCN(CCO)CC1)CCCC2 (stereo not given) the results were SARS PLP yeast 0.5%, NS1 inh -1.5%, StopGo reporter -9.8% and RE007 growth inh -1.8%.
Screening COc1ccc(NC(=O)OCCn2c([N+](=O)[O-])cnc2C)cc1 returned LASV entry inh 12.7%, Cruzain inh Det 0.7%, SARS PLP yeast -11.4%, NS1 inh 2.0%, StopGo reporter 3.7%, Cruzain inh noDet -18.9%, RE007 growth inh 1.2% and MARV entry inh inconclusive.
Cc1cc(C)nc(NS(=O)(=O)c2ccc(NC(=O)c3cccc(N4C(=O)CCC4=O)c3)cc2)n1 was read as LASV entry inh -2.8%, Cruzain inh Det -0.2%, SARS PLP yeast -35.4%, NS1 inh 0.7%, StopGo reporter -9.4%, Cruzain inh noDet -2.7%, RE007 growth inh -3.6% and MARV entry inh -6.5%.
Screening CC(C)(C)NCCOCCOc1ccc(Cl)cc1C(C)(C)C returned SARS PLP yeast 0.4%, NS1 inh -6.4%, StopGo reporter -21.2% and RE007 growth inh 4.8%.
For COc1ccc2cc(CN(CCc3ccccc3)Cc3nnnn3CC3CCCO3)c(=O)[nH]c2c1 (stereo not given) the results were LASV entry inh inconclusive, Cruzain inh Det -4.2%, SARS PLP yeast 4.6%, NS1 inh -47.4%, Cruzain inh noDet inconclusive, RE007 growth inh 1.8% and MARV entry inh 0.5%&-19.6%.
Cc1nc2c(C)cccc2cc1C(=O)N/N=C/c1cccc([N+](=O)[O-])c1 was read as LASV entry inh -21.1%, Cruzain inh Det -6.9%, SARS PLP yeast -29.4%, NS1 inh 12.6%, StopGo reporter inconclusive, Cruzain inh noDet -13.8%, RE007 growth inh -10.5% and MARV entry inh -15.7%.
CC(C)(C)c1csc(NC(=O)Cc2ccc(S(=O)(=O)N3CCOCC3)s2)n1 was read as LASV entry inh inconclusive, SARS PLP yeast -4.0%, StopGo reporter inconclusive, RE007 growth inh 3.7% and MARV entry inh inconclusive.
For COc1ccc(-c2nc3c4ccccc4ccn3c2CN2CCCCC2)cc1 the results were SARS PLP yeast -0.2%, NS1 inh 1.6%, StopGo reporter -13.6% and RE007 growth inh 0.2%.
Cc1ccc(S(=O)(=O)N2CCOC2CNC(=O)C(=O)NCCc2ccccc2)cc1 (stereo not given) was read as SARS PLP yeast 0.4%, NS1 inh -9.3%, StopGo reporter 10.6% and RE007 growth inh -0.6%.
Screening CCN(CC)S(=O)(=O)c1ccc2c(c1)nc(CCC(=O)Nc1ccc3c(c1)OCO3)n2C returned LASV entry inh 10.4%, Cruzain inh Det -2.7%, SARS PLP yeast 0.4%, NS1 inh 7.5%, StopGo reporter -11.5%, Cruzain inh noDet -9.1%, RE007 growth inh -5.6% and MARV entry inh inconclusive.
`CCOc1ccc(C(=O)Nc2ccc3c(c2)C(=O)NC3=O)cc1` gave SARS PLP yeast 1.5%, NS1 inh -10.3%, StopGo reporter -3.7% and RE007 growth inh 0.5%.
For CNS(=O)(=O)c1cccc(C(=O)Nc2cccnc2)c1 the results were LASV entry inh 5.7%, Cruzain inh Det 0.2%, SARS PLP yeast 1.7%, NS1 inh 6.7%, StopGo reporter -15.9%, Cruzain inh noDet -4.5%, RE007 growth inh -5.3% and MARV entry inh -0.6%.
`Cc1nn(-c2ccccc2)c(/N=C/c2ccc(O)cc2)c1-c1ccccc1` gave LASV entry inh inconclusive, Cruzain inh Det -6.9%, SARS PLP yeast -11.8%, NS1 inh 3.9%, StopGo reporter 3.8%, Cruzain inh noDet 5.3%, RE007 growth inh 2.7% and MARV entry inh inconclusive.
CCOc1ccc(-n2c(C)c(C(C)=O)c3cc(O)ccc32)cc1 was read as SARS PLP yeast -0.1%, NS1 inh 1.5%, StopGo reporter -6.6% and RE007 growth inh -11.4%.
Screening C=C1C(=O)[C@@]23[C@H](O)C[C@@H]4C(C)(C)CC[C@H](O)[C@@]4(C)[C@@H]2CC[C@@H]1[C@H]3O returned LASV entry inh 10.3µM*, Cruzain inh Det -2.1%, SARS PLP yeast -4.5%, NS1 inh -17.6%, StopGo reporter inconclusive, Cruzain inh noDet -10.1%, RE007 growth inh 2.5% and MARV entry inh inconclusive.
O=C(NCc1ccncc1)c1cccc(S(=O)(=O)Nc2ccc(SC(F)F)cc2)c1 was read as LASV entry inh -24.3%, SARS PLP yeast -2.4%, StopGo reporter -11.5%, RE007 growth inh -9.9% and MARV entry inh 0.9%.
`O=C(NCC(c1ccc2c(c1)OCO2)N1CCN(c2ccccc2)CC1)C(=O)Nc1cccc(F)c1` (stereo not given) gave LASV entry inh -13.3%[46.1 µM], Cruzain inh Det -0.6%, StopGo reporter -0.3% and Cruzain inh noDet -18.1%.
`COc1cccc(CC(=O)N2CCCC(CO)(Cc3ccc(F)cc3F)C2)c1` (stereo not given) gave SARS PLP yeast 0.9%, NS1 inh 1.8%, StopGo reporter -5.6% and RE007 growth inh 3.3%.
For Cc1ccc(-c2noc(CNC(=O)COc3ccccc3C)n2)cc1 the results were LASV entry inh -9.3%, SARS PLP yeast -3.3%, NS1 inh -42.1%, StopGo reporter -1.5%, RE007 growth inh 6.3% and MARV entry inh 4.5%.
O=C(CN1C(=O)NC(Cc2c[nH]c3ccccc23)C1=O)Nc1cccc(S(=O)(=O)N2CCOCC2)c1 (stereo not given) was read as SARS PLP yeast -0.7%, NS1 inh 1.5%, StopGo reporter -2.1% and RE007 growth inh 3.7%.
For Cc1cc(C)c(NC(=O)c2ccc(S(=O)(=O)N(C)C)cc2)c(C)n1 the results were LASV entry inh 5.9%, Cruzain inh Det 4.4%, SARS PLP yeast 2.7%, NS1 inh -2.7%, Cruzain inh noDet -3.4%, RE007 growth inh 2.7% and MARV entry inh 8.9%.
Screening CCOc1ccc(-c2cc(OC(=O)c3ccc(OC)cc3)c3c(C)oc(C)c3c(=O)c2)cc1 returned LASV entry inh -13.5%[46.1 µM], Cruzain inh Det -9.7%, StopGo reporter -1.1%, Cruzain inh noDet -5.8% and MARV entry inh 8.0%[46.1 µM].
For O=C(Cn1c(=O)nc(-c2ccccc2F)c2cc(Cl)ccc21)N1CCN(c2ccccc2F)CC1 the results were LASV entry inh -2.1%[46.1 µM], Cruzain inh Det -2.8%, StopGo reporter -5.4% and Cruzain inh noDet -5.0%.
CCN(C(=O)COC(=O)c1ccc2c(c1)OCO2)c1ccc(F)cc1 was read as LASV entry inh 6.0%, SARS PLP yeast -1.6%, StopGo reporter -12.3%, RE007 growth inh 4.2% and MARV entry inh -11.6%.
`Cc1ccc(C(=O)/C=C/c2ccc3c(c2)OCO3)o1` gave LASV entry inh -2.3%, Cruzain inh Det -8.5%, SARS PLP yeast -23.2%, NS1 inh -14.3%, Cruzain inh noDet -3.2%, RE007 growth inh inconclusive and MARV entry inh -10.4%.
Screening CC(C)c1nc(SCC(=O)Nc2ccc3c(c2)OCO3)n[nH]1 returned LASV entry inh -9.3%, Cruzain inh Det 3.7%, SARS PLP yeast 18.2%, NS1 inh -12.2%, StopGo reporter 0.3%, Cruzain inh noDet 6.1%, RE007 growth inh -9.6% and MARV entry inh -4.6%.
CCn1ccnc1C(O)c1ccc(N(C)C)cc1 (stereo not given) was read as LASV entry inh 1.8%, Cruzain inh Det 5.2%, SARS PLP yeast -1.7%, NS1 inh 1.0%, StopGo reporter 17.5%, Cruzain inh noDet -6.3%, RE007 growth inh 14.2% and MARV entry inh 21.1%.
`CCc1c(C)nc(N)nc1N1N=C1SC` gave LASV entry inh 2.1%, Cruzain inh Det 1.4%, SARS PLP yeast -4.0%, NS1 inh -4.8%, StopGo reporter -10.2%, Cruzain inh noDet -0.5%, RE007 growth inh 1.3% and MARV entry inh 9.6%.
For CCOC(=O)c1c(C)n(OCc2ccccc2)c2ccc3c(no[n+]3[O-])c12 the results were LASV entry inh inconclusive, Cruzain inh Det -0.2%, SARS PLP yeast 1.9%, NS1 inh -35.4%, Cruzain inh noDet -3.8%, RE007 growth inh 7.3% and MARV entry inh inconclusive.
For O=C(c1ccccc1)N1CCN(c2ccc([N+](=O)[O-])c(NCc3cccnc3)c2)CC1 the results were LASV entry inh -22.5%, Cruzain inh Det -20.2%, SARS PLP yeast -0.1%, NS1 inh -6.1%, StopGo reporter -10.2%, Cruzain inh noDet -2.6%, RE007 growth inh 22.5% and MARV entry inh inconclusive.
Screening Cc1ccc(C)c(C(=O)NC2CC(C)(C)NC(C)(C)C2)c1 returned LASV entry inh -25.7%, Cruzain inh Det 3.5%, SARS PLP yeast 4.2%, NS1 inh 2.6%, StopGo reporter -5.2%, Cruzain inh noDet 4.7%, RE007 growth inh 4.4% and MARV entry inh -10.8%.

From PubChem BioAssay
